VDR inhibitor – vitamin D3 receptor (human) inhibition; AID 504847; hit rate 0.93% among 400,000; P11473; Potency, µM, for inactives: max response, negative = inhibition, most hits filed as inhibitors; VDR-SRC2-3 peptide fluorescence polarization, 2 h; active = well fitted inhibition curve with a large enough effect; inconclusive = small, poorly fitted or top-dose-only effect, or another doubt; inactive = no such curve, though single readings can be large or run the other way; also: series mostly up to about 120 µM
Target sequence (P11473 whole entry, looked up): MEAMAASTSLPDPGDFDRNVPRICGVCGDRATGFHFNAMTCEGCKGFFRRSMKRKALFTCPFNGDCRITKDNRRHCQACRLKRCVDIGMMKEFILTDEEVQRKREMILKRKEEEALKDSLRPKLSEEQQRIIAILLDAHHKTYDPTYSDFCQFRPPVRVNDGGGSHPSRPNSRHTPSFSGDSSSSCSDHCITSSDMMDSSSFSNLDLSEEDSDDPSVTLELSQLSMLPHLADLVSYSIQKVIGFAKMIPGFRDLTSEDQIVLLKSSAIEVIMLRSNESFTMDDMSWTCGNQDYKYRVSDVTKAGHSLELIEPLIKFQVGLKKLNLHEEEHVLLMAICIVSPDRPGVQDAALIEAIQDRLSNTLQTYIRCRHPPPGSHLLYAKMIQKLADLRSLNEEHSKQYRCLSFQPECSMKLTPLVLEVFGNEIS
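Fluorescence polarization assay measuring small-molecule disruption of VDR binding to the coregulator peptide SRC2-3. Compounds were pin-transferred (23 nl) into the reagent mix and incubated 2 h at room temperature before reading.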
* hit, by the source's call. % is scaled to controls: 0 for no effect and ±100 for the full control effect; potency is read from the fitted curve at half-maximal effect. These rows are one share of the data (hit frequency here may not be typical).

`c1csc(-c2noc(CN3CCN4CCCC4C3)n2)c1` (stereo not drawn) gave VDR inhibitor 7.0%.
COc1ccc(-c2nnn(CC(=O)N(c3cccc(O)c3)C(C)C(=O)NC3CCCC3)n2)cc1OC (stereo not drawn) was read as VDR inhibitor -12.6%.
For COC(=O)c1ccc(NC(=O)Cc2ccc(F)cc2)cc1 the results were VDR inhibitor -11.9%.
`CC(NCCOCCOc1ccccc1)c1ccccc1` (stereo not drawn) gave VDR inhibitor 1.3%.
`O=C(Oc1ccc(Cl)cc1)c1ccc(COC(=O)c2cnccn2)cc1` gave VDR inhibitor 0.3%.
For CC(=O)Nc1ccc(SCC(=O)c2cc(C)ccc2C)cc1 the results were VDR inhibitor -13.7%.
Cc1ccc(CSc2nc3cccnc3n2Cc2ccc(C(=O)NC3CCCCC3)cc2)cc1 was read as VDR inhibitor 2.2%.
Cc1n[nH]c(=O)c2c(NC(=O)CSc3ccc(F)cc3)oc(C)c12 was read as VDR inhibitor -2.5%.
For O=C1CN(C(=O)CN2C(=O)NC3(CCCCC3)C2=O)c2ccccc2N1 the results were VDR inhibitor -2.2%.
Screening COc1ccc(OC)c(C(=O)Nc2ccc3[nH]ccc3c2)c1 returned VDR inhibitor -12.4%.
Screening O=C(Nc1cccs1)OCCN1CCN(Cc2ccccc2)CCC1=O returned VDR inhibitor -25.0%.
`CCCCc1c(CCC)c(=N)c2ccccc2n1C` gave VDR inhibitor -4.5%.
Screening O=C(Nc1nc2ccccc2[nH]1)c1ccccc1OC(F)F returned VDR inhibitor 6.1%.
OC1(CNCc2ccccc2)C2CC3CC(C2)CC1C3 (stereo not drawn) was read as VDR inhibitor -2.2%.
Cc1ccc(CN2C(=O)CCC2C(=O)NCCCN2CCCC(C)C2)cc1 (stereo not drawn) was read as VDR inhibitor -2.2%.
`C/C(=N\NS(=O)(=O)c1ccc(C)cc1)c1cccs1` gave VDR inhibitor 19.4%.
`COc1ccccc1Nc1cc(N2CCOCC2)c2nonc2c1[N+](=O)[O-]` gave VDR inhibitor 2.0%.
Screening CCCOc1ccc(C(=O)NNC(=S)NC(=O)CC)cc1 returned VDR inhibitor inconclusive.
Screening COc1cc(NS(=O)(=O)c2ccc(NC(=O)COc3cccc(C)c3)cc2)nc(OC)n1 returned VDR inhibitor -12.1%.
CCN1c2ccccc2-c2nc(SCC(=O)Nc3c(C)cc(C)cc3C)ncc2S1(=O)=O was read as VDR inhibitor 7.4%.

Gathered by group, the compounds so far containing two or more sulfur atoms (2)
`C/C(=N\NS(=O)(=O)c1ccc(C)cc1)c1cccs1` gave VDR inhibitor 19.4%.
CCN1c2ccccc2-c2nc(SCC(=O)Nc3c(C)cc(C)cc3C)ncc2S1(=O)=O was read as VDR inhibitor 7.4%.

(next part)
`Cc1coc(C)c1C(=O)Nc1ccc2ccccc2c1` gave VDR inhibitor -10.1%.
Screening O=C(NCc1ccccn1)c1ccc2nc(C3CCCCC3)oc2c1 returned VDR inhibitor -7.9%.
CCS(=O)(=O)N1Cc2ccccc2CC1C(=O)Nc1nc(C)cs1 (stereo not drawn) was read as VDR inhibitor 4.2%.
`COc1ccc(OCC(=O)OC(C)CN2CCCCC2)cc1` (stereo not drawn) gave VDR inhibitor -5.2%.
For O=C(CC1C[C@H](C(=O)N2CCOCC2)[C@@]2(CCC3CCCC3)c3[nH]c4ccccc4c3CCN2C1=O)NCCCn1ccnc1 (stereo partly drawn) the results were VDR inhibitor -9.6%.
For CCOC(=O)C1CCCN(C(=O)c2cc(S(=O)(=O)N(C)C)ccc2N2CCCC2)C1 (stereo not drawn) the results were VDR inhibitor 14.3%.
NC(=O)c1ccc(-c2ccccc2F)cc1 was read as VDR inhibitor -14.2%.
Screening O=C(NC1CCCC1)c1c(O)nc2sccn2c1=O returned VDR inhibitor 0.8%.
For CC(NC(=O)Nc1cccc(F)c1)c1ccc2c(c1)OCO2 (stereo not drawn) the results were VDR inhibitor 8.4%.
`Cc1ccc(NC(=O)CCc2c(C)nn(-c3ccc(N4CCOCC4)nn3)c2C)cc1` gave VDR inhibitor -6.4%.
`O=C(/C=N/NC(=O)c1ccccc1Br)c1ccccc1` gave VDR inhibitor -1.5%.
`O=C(COC(=O)c1ccccc1Sc1ccc(C(F)(F)F)cc1[N+](=O)[O-])NC(=O)NC1CCCC1` gave VDR inhibitor 0.6%.
O=C1CCCC(O)=C1N=Nc1ccc(S(=O)(=O)N2CCOCC2)cc1 was read as VDR inhibitor -12.6%.
CCc1ccc(NC(=O)CCc2nnc3ccc(N4CCCC4)nn23)cc1 was read as VDR inhibitor -1.5%.
COc1ccc2[nH]c(O)c(N=O)c2c1 was read as VDR inhibitor -1.9%.
CN(C)c1ncnc2c1ncn2CCn1cnc2c(N(C)C)ncnc21 was read as VDR inhibitor -5.3%.
COC(=O)c1ccc(/C=C/c2c(-c3ccsc3)oc3ccc(N4CCOCC4)cc23)cc1 was read as VDR inhibitor -14.3%.
For CC(=O)Nc1ccc(S(=O)(=O)Nc2nc3ccc([N+](=O)[O-])cc3s2)cc1 the results were VDR inhibitor 5.5%.
`CCOC(=O)c1c2n(c3c(NCc4ccccc4)ncnc13)CCCC2` gave VDR inhibitor -14.2%.
For COc1cc(/C=C/C(=O)OCC(=O)Nc2ccc(C)c(S(=O)(=O)N3CCCCC3)c2)ccc1O the results were VDR inhibitor inconclusive.
O=c1cc(N2CCCCC2)c(-c2ccccc2)nn1Cc1cccc(F)c1 was read as VDR inhibitor -8.8%.
O=C(CCC1N=C2c3ccccc3N=C(SCc3ccccc3F)N2C1=O)NC1CCCCC1 (stereo not drawn) was read as VDR inhibitor -4.9%.
Screening CC1CN(CCc2ccccc2)C(C)C/C1=N/O (stereo not drawn) returned VDR inhibitor 3.4%.
For CS(=O)(=O)N(CC(=O)O)c1cc(C(F)(F)F)ccc1Cl the results were VDR inhibitor -16.4%.
For CCN(CC)CCN1C(=O)C2C(C(=O)Nc3cc(C)cc(C)c3)C3C=CC2(O3)C1C(=O)NC1CCCCC1 (stereo not drawn) the results were VDR inhibitor -15.0%.
Screening O=C(O)Cc1ccccc1C(=O)O returned VDR inhibitor -5.4%.
Screening C#CCSc1nc2sc3c(c2c(=O)n1C)CCC3 returned VDR inhibitor -3.5%.
Screening CCN(CC)CCNc1nc(C(F)(F)F)nc2c1nnn2Cc1ccccc1 returned VDR inhibitor 13.3%.
For CCOC(=O)c1c(C)[nH]c(C)c1C(=O)COC(=O)c1ccc(Cl)c(S(=O)(=O)NCc2ccccc2)c1 the results were VDR inhibitor 8.8%.
`CCCn1c(SCC(=O)Nc2ccccc2CC)nnc1C(C)C` gave VDR inhibitor -17.0%.
CCCCCCn1nc(C(=O)Nc2nc3c(s2)CCCC3)c2ccccc2c1=O was read as VDR inhibitor -14.2%.
For CCN1CCN(c2c(/C=C3\SC(=S)N(Cc4ccco4)C3=O)c(C)c(C#N)c(=O)n2C)CC1 the results were VDR inhibitor -11.9%.
Screening Cc1cccc2cc(C#N)c(N3CCOCC3)nc12 returned VDR inhibitor 4.6%.
Screening CCOC(=O)C1CCCN(c2ccc(NC(=O)c3snc4c(=O)[nH]cnc34)cc2)C1 (stereo not drawn) returned VDR inhibitor 2.3%.
`CC(C)(C)NC(=O)Cn1nnc(-c2ccc(OCc3c(F)cccc3Cl)cc2)n1` gave VDR inhibitor 10.3%.
Screening Cc1cccc(OC(=O)c2cc(-c3ccc4c(c3)OCCO4)on2)c1C returned VDR inhibitor 15.5%.
`COc1nnc(-c2ccc(C(=O)N3C[C@@H]4C[C@H](C3)c3cccc(=O)n3C4)cc2)c2ccccc12` gave VDR inhibitor 7.9%.
CS(=O)(=O)N(CC(=O)NC1CC1)C1CCCCC1 was read as VDR inhibitor 9.5%.
`CC(NC(=O)c1ccco1)C(=O)N1CCN(c2cccc(Cl)c2)CC1` (stereo not drawn) gave VDR inhibitor -0.1%.
Screening COc1ccc(NC(=O)CCCn2c(=S)[nH]c3ccccc3c2=O)cc1 returned VDR inhibitor -3.2%.

Taken from the results shown for reference:
For CCOC(=O)c1c(C)[nH]c(C)c1C(=O)COC(=O)c1ccc(Cl)c(S(=O)(=O)NCc2ccccc2)c1 the results were VDR inhibitor 8.8%.
`CCCn1c(SCC(=O)Nc2ccccc2CC)nnc1C(C)C` gave VDR inhibitor -17.0%.
CCCCCCn1nc(C(=O)Nc2nc3c(s2)CCCC3)c2ccccc2c1=O was read as VDR inhibitor -14.2%.

Back to the main list, repeating the three entries before the break.
CS(=O)(=O)N(CC(=O)NC1CC1)C1CCCCC1 was read as VDR inhibitor 9.5%.
`CC(NC(=O)c1ccco1)C(=O)N1CCN(c2cccc(Cl)c2)CC1` (stereo not drawn) gave VDR inhibitor -0.1%.
Screening COc1ccc(NC(=O)CCCn2c(=S)[nH]c3ccccc3c2=O)cc1 returned VDR inhibitor -3.2%.
Screening COc1ccc(NC(=O)CSc2n[nH]c(CNc3cccc(C)c3)n2)cc1 returned VDR inhibitor 6.9%.
`CCOc1c2ccc(C(=O)NCCCCc3ccccc3)cc2nn1CC` gave VDR inhibitor -15.4%.
Screening O=C(CCS(=O)(=O)c1ccccc1)Nc1nc2cc3c(cc2s1)OCCO3 returned VDR inhibitor -2.0%.
`COCCOC(=O)c1c(NC(=O)CN2CCc3ccccc32)sc(C(N)=O)c1C` gave VDR inhibitor -14.7%.
For CC(=O)c1ccc(S(=O)(=O)Nc2cccc(-c3ccc(N4CCOCC4)nn3)c2)cc1 the results were VDR inhibitor -4.2%.
Screening CN1CCN(CCc2cn3ncc(C#N)c3nc2-c2ccc(F)cc2)CC1 returned VDR inhibitor 1.8%.
For CC1CCN(S(=O)(=O)c2nnc(NC(=O)c3cccc([N+](=O)[O-])c3)s2)CC1 the results were VDR inhibitor 15.4%.
For O=C(NNC(=O)NC1CCCCC1)NC1CCCCC1 the results were VDR inhibitor -1.4%.
COc1nc(N(C)C)nc(N(C#N)CCOC(C)=O)n1 was read as VDR inhibitor -10.8%.
Screening Cc1ccc(N(CC(N)=O)C2SC(=O)NC2=O)cc1 (stereo not drawn) returned VDR inhibitor -14.1%.
`CCOc1cc(N2CCOCC2)c(OCC)cc1NC(=O)c1cccc(S(=O)(=O)N2CCOCC2)c1` gave VDR inhibitor 3.7%.
`Cc1cccc(OCC(=O)N/N=C/c2cn[nH]c2-c2ccc(Cl)c(Cl)c2)c1` gave VDR inhibitor -10.4%.
`c1coc(C2=Nc3cccc4cccc(c34)N2)c1` gave VDR inhibitor 4.2%.
For COc1cc(C2=Nc3c(c(C)nn3-c3ccccc3)P(=O)(N3CCOCC3)O2)cc(OC)c1OC (stereo not drawn) the results were VDR inhibitor 5.7%.
Screening CCNc1ccc(C(=O)OC(C(=O)NC(N)=O)C(C)C)cc1[N+](=O)[O-] (stereo not drawn) returned VDR inhibitor 5.7%.
COc1ccc(S(=O)(=O)N(C)CC(=O)NCCCN2CCOCC2)cc1Cl was read as VDR inhibitor 12.6%.
For Cc1nc(NC(=O)/C=C/c2ccccc2)sc1C(=O)NCCO the results were VDR inhibitor 5.6%.
`CC(=O)NC(CCS(C)(=O)=O)C(=O)Nc1cccc(C)c1` (stereo not drawn) gave VDR inhibitor -3.7%.
`O=[N+]([O-])c1cccc(C=NN=Cc2ccccc2O)c1` gave VDR inhibitor -6.1%.
For COc1ccc(C2CC(=O)c3cc(-c4nc(-c5cccc([N+](=O)[O-])c5)cs4)c(=O)n(-c4ccc(F)cc4)c3C2)cc1 (stereo not drawn) the results were VDR inhibitor 3.2%.
For COc1cccc(NC(=O)Nc2ccc(Br)cn2)c1 the results were VDR inhibitor 15.7%.
Screening CCn1c(SCC(=O)N2CCCCC2C)nnc1-c1ccc(S(=O)(=O)N2CCN(C)CC2)cc1 (stereo not drawn) returned VDR inhibitor 5.4%.
O=C(CCN1C(=O)S/C(=C\c2ccccc2)C1=O)NCCCn1ccnc1 was read as VDR inhibitor -0.1%.
Screening CCCOc1cccc(C(=O)Nc2nnn(CCC)n2)c1 returned VDR inhibitor -3.5%.
COc1ccccc1CNC(=O)C1CCC(=O)N1C(C)C (stereo not drawn) was read as VDR inhibitor 13.4%.
`NCCCC(N)CC(=O)NC1CNC(=O)C(C2CC(O)N=C(N)N2)NC(=O)/C(=C/NC(N)=O)NC(=O)C(CO)NC(=O)C(CO)NC1=O` (stereo not drawn) gave VDR inhibitor 2.4%.
For CCN(CC)C(=O)[C@H]1C[C@H](CC(=O)NCCCn2ccnc2)C(=O)N2CCc3c([nH]c4ccc(Cl)cc34)[C@]12C the results were VDR inhibitor -6.9%.
COc1ccc(OC)c(C2SCCN2S(C)(=O)=O)c1 (stereo not drawn) was read as VDR inhibitor 3.1%.
`COc1cc(SC)ccc1C(=O)OCC(=O)NCCC1=CCCCC1` gave VDR inhibitor 3.5%.
Screening Cc1ccc(N2C(=O)[C@@H]3Cc4ccccc4CN3C2=O)cc1 returned VDR inhibitor -0.8%.
Screening COc1ccc(-c2nc(N)n(C(C)=O)n2)cc1 returned VDR inhibitor -0.4%.
Screening Oc1cc(Nc2cccnc2)cc2cccnc12 returned VDR inhibitor -12.7%.
Screening Cc1ccc(C)c(-c2ccc(=O)n(Cc3cccc(Br)c3)n2)c1 returned VDR inhibitor -8.0%.
CCOC(=O)C1=NNC2(c3ccc(C)cc3)C(=O)N(c3ccccc3)C(=O)C12 (stereo not drawn) was read as VDR inhibitor 6.9%.
Screening COc1ccc(-c2csc(NC(=O)CN3C(=O)NC4(CCCC4)C3=O)n2)c(OC)c1 returned VDR inhibitor -9.5%.
Screening CCOc1ccccc1N1CCN(CC(=O)N(C2CCCC2)C2CCS(=O)(=O)C2)CC1 (stereo not drawn) returned VDR inhibitor 1.6%.
Screening COC(=O)c1ccc2c(=O)n(CCN3CCOCC3)c(SCC(=O)Nc3ccccc3Cl)nc2c1 returned VDR inhibitor -3.4%.
O=C(Nc1ccc(N2CCCCCC2)cc1)c1ccc[nH]1 was read as VDR inhibitor 6.5%.
Screening CCOC(=O)C(NCCCO)c1ccccc1 (stereo not drawn) returned VDR inhibitor -9.4%.
